Source: PubChem BioAssay
BasE inh = inhibitors of Acinetobacter baumannii siderophore enzyme BasE; purified BasE, fluorescence polarization binding displacement; inhibition, % (no concentration beside the values); 84,000 tested, 0.1% active; AID 485350;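 active means both replicates above 25% with normal brightness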;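 further: 0% = negative plate control signal and 100% = positive plate control signal; stock transfer was 100 nL into about 30 µL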
KSHV LANA nucl = LANA-nucleosome interaction inhibition; z-score (concentration not given with the values); AID 720717; 51,000 tested, 0.3% active; FITC-LANA1-23 / chicken nucleosome fluorescence polarization; hits give low values;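 active means both repeat wells score below -2 in polarization z-score versus plate sample wells, excluding overly bright wells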;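 further: 100 nL library stock added to about 30 µL; numbers are from one replicate; some results filed as inactive read as strong as hits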
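System – purified chicken nucleosomes with FITC-labelled LANA N-terminal peptide (1-23) · Amount – 240 nM purified chicken nucleosomes (480 nM peptide binding sites), final · Also added – 50 nM FITC-LANA1-23 probe · Medium – TEN-BT buffer, pH 7.5 · Incubation – compound with peptide–nucleosome mix 10–45 min at room temperature · Detection – fluorescence polarization, ex 480 nm, em 535 nm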
Numbers without * were called inactive; & = joins results of further samples.

`CCOC(=O)N1CCN(C(=O)COC(=O)c2ccc(=O)n(Cc3ccccc3)n2)CC1` gave BasE inh -0.9.
CC(C)CCSc1nc2ccccc2n1CC(N)=O was read as BasE inh -1.4.
`O=C(CSc1nncn1-c1ccccc1)Nc1ccccc1` gave BasE inh -3.0 and KSHV LANA nucl 1.2.
CNC(=O)CN(c1cccc(C)c1C)S(=O)(=O)c1ccccc1 was read as BasE inh 1.0.
`CCOC(=O)COc1ccc(S(=O)(=O)N2CCN(Cc3ccc4c(c3)OCO4)CC2)cc1` gave BasE inh 1.8 and KSHV LANA nucl -1.28.
For CN1C(=O)c2ccc(NC(=S)NC(=O)C(C)(C)C)cc2C1=O the results were BasE inh -2.9 and KSHV LANA nucl 0.267.
Screening O=C(Cn1c(C(F)(F)F)nc2ccccc21)NCc1ccco1 returned BasE inh -0.9 and KSHV LANA nucl 0.265.
`CCCN(CC1CC1)c1oc(-c2ccc(F)cc2)nc1C#N` gave BasE inh -0.2.
Screening COCCn1nnnc1C(C(C)C)N1CCN(C(=O)c2ccco2)CC1 (stereo not given) returned BasE inh -35.7 and KSHV LANA nucl -0.119.
For COC(=O)C1C(=O)C(C(=O)c2ccccc2)C(=O)CC1(C)C (stereo not given) the results were BasE inh 3.4 and KSHV LANA nucl 0.353.
Cc1nn(-c2ccccc2)c2c1C(c1ccc(-c3ccc(S(=O)(=O)N4CCOCC4)cc3)o1)C1=C(CC(C)(C)CC1=O)N2 (stereo not given) was read as BasE inh -3.2.
Screening CC1Cc2ccccc2N1C(=O)CSc1nc2scc(-c3ccco3)c2c(=O)n1-c1ccccc1 (stereo not given) returned BasE inh 0.9.
Screening Cc1cc(=S)cc(C)n1C returned BasE inh -0.2 and KSHV LANA nucl -0.282.
`Cc1sc2ncnc(Cl)c2c1C` gave BasE inh 0.0.
`O=C(CN(Cc1ccccc1Cl)C(=O)c1ccc(CN2CCOCC2)o1)NCc1ccccc1` gave BasE inh -0.6 and KSHV LANA nucl 2.08.
Screening CCOc1ccccc1NC(=O)NCCN1CCCc2ccccc21 returned BasE inh -1.0 and KSHV LANA nucl 1.59.
Screening Cc1ccc(NC(=O)CCSC2=NCCS2)cc1 returned BasE inh -2.5 and KSHV LANA nucl -0.453.
CC(C)NC(=O)CSc1nnc(-c2cccnc2)o1 was read as BasE inh -1.6 and KSHV LANA nucl 1.26.
O=C(OCc1ncc(-c2ccccc2)o1)c1ccccc1C(=O)c1ccc2c(c1)OCCO2 was read as BasE inh 2.4.
For CCOC(=O)CC1C(=O)NCCN1C(=O)OC(C)(C)C (stereo not given) the results were BasE inh 1.2 and KSHV LANA nucl -0.231.
For COC(=O)c1csc(N)n1 the results were BasE inh 0.4 and KSHV LANA nucl -0.612.
For Cc1cc2ncn(C(=O)c3c(-c4ccccc4Cl)noc3C)c2cc1C the results were BasE inh 1.8.
Screening Cc1nc(C23CC4CC(CC(C4)C2)C3)[nH]c(=O)c1Cl returned BasE inh 2.1.
CCCCC(C(=O)Nc1ccccc1)N1C(=O)c2ccccc2C1=O (stereo not given) was read as BasE inh 1.5.
Screening COC(=O)CSc1nc2ccccc2s1 returned BasE inh 0.5 and KSHV LANA nucl -0.927.
For CCc1ccc(NC(=O)/C=C/C(=O)O)cc1 the results were KSHV LANA nucl -0.861.
`CN(C)c1ccc(CN2CCCCCC2)cc1` gave BasE inh -1.5 and KSHV LANA nucl -0.542.
Screening C=CCSc1nnc(-c2cc(C(C)(C)C)nn2Cc2ccc(F)cc2)n1C returned BasE inh 1.2 and KSHV LANA nucl 0.599.
Screening O=C(NO)c1ccc(Br)s1 returned BasE inh 0.3.
Screening Cc1ccc(OCc2nc(SCc3c(C)noc3C)n[nH]2)cc1 returned BasE inh -2.6.
For Cc1c(C)c(C)c(CSCc2n[nH]c(=S)n2-c2ccc(F)cc2)c(C)c1C the results were BasE inh 2.8.
CCOC(=O)/C(C#N)=C/c1c(C)nn(Cc2ccccc2)c1C was read as BasE inh 2.6.
Screening CC(C)C(C)NC(=O)CSc1nc(N)cc(N)n1 (stereo not given) returned BasE inh 0.5.
For Cc1ccc(-c2nc3n(n2)C2(CCCCC2)[C@@H]2CCCC[C@@H]2N3C(=O)c2cccs2)cc1 the results were BasE inh 1.5 and KSHV LANA nucl 0.746.
Screening C[N+]1(CCCCC[N+]2(C)CCCC2)CCCC1 returned BasE inh -2.2&-2.8 and KSHV LANA nucl 0.302&-0.575.
COc1ccc2c(C)nc(/N=C(N)/N=C(\C)c3ccccc3C(=O)O)nc2c1 was read as BasE inh -1.1.
For N=c1n(Cc2ccccc2)c2ccccc2n1CC(O)c1ccc(Br)cc1 (stereo not given) the results were BasE inh -6.4 and KSHV LANA nucl 0.364.
For CN1c2ccccc2N(C)C1c1cccn1C the results were BasE inh -3.6.
For CCN(CC(=O)Nc1ccc(S(=O)(=O)N(C)C)cc1)CC(=O)Nc1ccccc1C(F)(F)F the results were BasE inh 1.4.
Cc1ccc(-n2ccc(=O)c(C(=O)Nc3ccc(S(N)(=O)=O)cc3)n2)cc1 was read as BasE inh 0.8 and KSHV LANA nucl -0.16.
`COC(=O)c1ccc(CSc2nc(CN3CCOCC3)nc3sc4c(c23)CCCC4)o1` gave BasE inh 0.8.
For CCOc1ccc2[nH]c(=S)sc2c1 the results were BasE inh 2.7 and KSHV LANA nucl -0.803.
Cc1ccc(S(=O)(=O)NCC(=O)OCc2cc(Cl)cc3c2OCOC3)cc1 was read as BasE inh 4.2.
Cc1ccc(-n2c(C)cc(/C=C3/C(=O)N(C4CCCCC4)C(=S)N3C)c2C)cc1 was read as BasE inh 5.1.
Cc1noc2ncnc(SCc3ccc(Cl)cc3)c12 was read as BasE inh 0.3.
CC(C)(C)NC(=O)c1ccc(C(C)(C)C)cc1 was read as BasE inh 1.9.
CC(C)c1cc(CN2CCN(c3ccccc3)CC2)c(O)c(CN2CCN(c3ccccc3)CC2)c1 was read as BasE inh 0.8.
`CN(C(=O)COC(=O)c1cccc2ccccc12)C1CCS(=O)(=O)C1` (stereo not given) gave BasE inh 1.6.
CN(C(=O)COC(=O)c1cccnc1N1CCCC1)c1c(N)n(Cc2ccccc2)c(=O)[nH]c1=O was read as BasE inh 3.6.
For Cc1cc(C(=O)COC(=O)c2ccc(Cl)s2)c(C)n1-c1ncn[nH]1 the results were BasE inh -1.9.
For CC(C)CCNC(=O)C1CCCN(S(=O)(=O)N2CCC3(CC2)OCCO3)C1 (stereo not given) the results were BasE inh 1.6 and KSHV LANA nucl -2.17*.
For COc1cccc(CN(CCCN2CCOCC2)C(=O)c2cc3sccc3n2Cc2ccccc2)c1 the results were BasE inh -0.3 and KSHV LANA nucl -0.466.
Cc1ccc(CNc2ccc3c(c2)ncn3C(C)C)cc1 was read as BasE inh 0.2 and KSHV LANA nucl -0.2.
For Cc1ccc2occ(CN(C)CCc3ccccn3)c(=O)c2c1 the results were BasE inh -1.1 and KSHV LANA nucl 2.75.
For CC(C)ON1C(=O)C2C3C=CC(O3)C2C1=O (stereo not given) the results were BasE inh 1.5 and KSHV LANA nucl -0.37.
`COC(=O)c1c(COC(=O)C2=COCCO2)nc2ccccc2c1C` gave BasE inh -1.5.
Screening CC(C)n1nc(CC(=O)O)c2ccccc2c1=O returned BasE inh 0.3 and KSHV LANA nucl 0.103.
Screening CC(C)(C(=O)c1ccccc1)/[N+]([O-])=C/c1ccc(F)cc1 returned BasE inh 0.5.
For Cc1ccc2cccc(NC(=S)NC(=O)c3ccn(C)n3)c2n1 the results were BasE inh -1.0 and KSHV LANA nucl 0.0605.
For CCCCN(C)Cn1ncn(C)c1=S the results were BasE inh 1.1.
For COc1ccc(-n2cc3ccsc3c2)cc1 the results were KSHV LANA nucl 0.276.
Screening O=C(CSc1ncccc1C(=O)O)NC1CCCc2ccccc21 (stereo not given) returned BasE inh 2.0.
`COc1ccc(Cn2c(C)csc2=Nc2cccnc2)cc1OC` gave BasE inh 1.6.
Cc1cc2c(cc1S(=O)(=O)N1CCCc3ccccc31)OCCN2C was read as BasE inh -0.4 and KSHV LANA nucl -0.732.
O=C(C1CC1)N1CCc2cc(Br)cc(S(=O)(=O)N3CCCCC3)c21 was read as BasE inh -1.2 and KSHV LANA nucl -0.738.
`Brc1ccc2ncnc(N3CCCC3)c2c1` gave BasE inh 0.1 and KSHV LANA nucl -0.865.
Cc1cc(C(=O)COC(=O)c2ccc(CN3CCCC3=O)cc2)c(C)n1C was read as BasE inh -2.9.
CSc1cccc(NC(=S)NCCCO)c1 was read as BasE inh 4.4 and KSHV LANA nucl -0.481.
Screening CCOC(=O)C1CCN(C(=O)c2cc(C(C)(C)C)nn2Cc2ccccc2)CC1 returned BasE inh 1.7 and KSHV LANA nucl -1.16.
Screening O=C(Nc1ccccc1)N(Cc1nc(-c2ccccc2)no1)C1CCCCC1 returned BasE inh 1.8 and KSHV LANA nucl -2.13*.
Screening Cn1c(CC(=O)Nc2ccccc2)nnc1SCCOc1ccccc1 returned BasE inh 1.9 and KSHV LANA nucl -1.84.
O=C(CN1CCC(N2CCCCC2)CC1)Nc1ccc2c(c1)OCCO2 was read as BasE inh 1.1 and KSHV LANA nucl 0.714.

In the list so far, these contain a cyano group:
`CCCN(CC1CC1)c1oc(-c2ccc(F)cc2)nc1C#N` gave BasE inh -0.2.
CCOC(=O)/C(C#N)=C/c1c(C)nn(Cc2ccccc2)c1C was read as BasE inh 2.6.

Next part.
COC(=O)CSc1nnc(-c2ccccc2)n1Cc1ccc2c(c1)OCO2 was read as BasE inh 3.6.
Screening COc1ccc(C(C(=O)OCCN(C)C)c2ccccc2)cc1 (stereo not given) returned BasE inh -2.0.
CN(CCOc1ccccc1)C(=O)NCc1ccccc1 was read as BasE inh 2.3.
For Oc1c(CN2CCOCC2)cc(CN2CCOCC2)cc1CN1CCOCC1 the results were BasE inh 0.0 and KSHV LANA nucl -0.148.
Screening O=S1(=O)CCC(N2CCSC2=Nc2ccc(Cl)cc2)C1 (stereo not given) returned BasE inh -0.1.
COc1ccc(CNC(=O)C2C3CCC(O3)C2C(=O)O)cc1 (stereo not given) was read as BasE inh -1.7.
`COc1ccc(C(=O)Nc2ccc(-c3nc4cc(C)cc(C)c4o3)cc2)cc1OC` gave BasE inh -2.6.
Screening Cc1cc2c(cc1Br)NC(=O)C21C(C#N)=C(N)Oc2n[nH]c(C)c21 (stereo not given) returned BasE inh -0.7 and KSHV LANA nucl -0.562.
Screening O=C(COc1ccccc1)N1CCN(c2cccc(Cl)c2)CC1 returned BasE inh 3.3 and KSHV LANA nucl -0.67.
`O=C(C1CC1)N(c1ccccc1)C1C=CS(=O)(=O)C1` (stereo not given) gave BasE inh 0.5 and KSHV LANA nucl -0.0415.
Screening C=CCNC1CC(=O)N(c2ccccc2)C1=O (stereo not given) returned BasE inh -0.6 and KSHV LANA nucl -0.349.
`N#Cc1cccc(CSc2nnc(-c3ccccc3F)n2C2CC2)c1` gave BasE inh 1.3.
CCOC(=O)C1CCN(C(=S)c2ccccc2)CC1 was read as BasE inh 1.5 and KSHV LANA nucl -1.2.
Cc1ccc(SCc2cc(=O)[nH]c(Nc3nc4ccccc4o3)n2)cc1 was read as BasE inh 1.6.
Screening Cc1cc(OC(=O)N2CCOCC2)cc(C)c1Cl returned BasE inh -3.2 and KSHV LANA nucl 1.8.
`O=C(O)c1cccc(S(=O)(=O)N2CCN(c3ccccc3)CC2)c1` gave BasE inh 2.5.
For CCCCCCNc1nc(Oc2ccccc2)nc(Oc2ccccc2)n1 the results were BasE inh 0.6 and KSHV LANA nucl 0.251.
Oc1ccc(C2N=C(c3ccccc3)NC(c3ccccc3)=N2)cc1 was read as BasE inh 6.5 and KSHV LANA nucl 0.228.
O=C(NC1CCCC1)C(F)(F)C(F)(F)C(=O)NC1CCCC1 was read as BasE inh -3.5 and KSHV LANA nucl 2.06.
`Cc1ccc2[nH]c3nc4ccccc4nc3c2c1` gave BasE inh 12.7 and KSHV LANA nucl -0.996.
For Cn1c(CCCCC(=O)O)nc2ccccc21 the results were BasE inh -1.5 and KSHV LANA nucl 0.418.
`CC(OC(=O)c1cc(=O)c2ccccc2[nH]1)C(=O)Nc1ccccc1F` (stereo not given) gave BasE inh 0.8.
O=C(CNc1cccc(C(F)(F)F)c1)N=Nc1c(O)[nH]c2ccccc12 was read as BasE inh -3.2.
Cc1n[nH]c(C)c1S(=O)(=O)N(C)C was read as BasE inh 1.0.

Compounds listed so far that have a Cl atom, in the order listed:
`Cc1sc2ncnc(Cl)c2c1C` gave BasE inh 0.0.
`O=C(CN(Cc1ccccc1Cl)C(=O)c1ccc(CN2CCOCC2)o1)NCc1ccccc1` gave BasE inh -0.6 and KSHV LANA nucl 2.08.
For Cc1cc2ncn(C(=O)c3c(-c4ccccc4Cl)noc3C)c2cc1C the results were BasE inh 1.8.
Screening Cc1nc(C23CC4CC(CC(C4)C2)C3)[nH]c(=O)c1Cl returned BasE inh 2.1.
Cc1ccc(S(=O)(=O)NCC(=O)OCc2cc(Cl)cc3c2OCOC3)cc1 was read as BasE inh 4.2.
Cc1noc2ncnc(SCc3ccc(Cl)cc3)c12 was read as BasE inh 0.3.
For Cc1cc(C(=O)COC(=O)c2ccc(Cl)s2)c(C)n1-c1ncn[nH]1 the results were BasE inh -1.9.
Screening O=S1(=O)CCC(N2CCSC2=Nc2ccc(Cl)cc2)C1 (stereo not given) returned BasE inh -0.1.
Screening O=C(COc1ccccc1)N1CCN(c2cccc(Cl)c2)CC1 returned BasE inh 3.3 and KSHV LANA nucl -0.67.
Screening Cc1cc(OC(=O)N2CCOCC2)cc(C)c1Cl returned BasE inh -3.2 and KSHV LANA nucl 1.8.

A portion of the library, so the mix of outcomes need not match the whole.
